Vaccinia stage: blocks a specific stage of Vaccinia orthopoxvirus infection | AID 1053133 | 89,000 tested, 0.01% active | activity change (mCherry), % (no concentration beside the values) | Vaccinia-infected cells, mCherry/Venus stage reporter fluorescence; stronger effect = lower value; some inactives read as strong as hits;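 active = mCherry past -33% and 40 or more points under the early reporter, replicates agreeing; inconclusive = past -33% without that gap or agreement; tested in A549 cells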;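 note: scaled between vehicle wells and reference inhibitor wells; 23 nL library stock went into each well; one replicate is shown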
Vaccinia stage Venus: recorded beside Vaccinia stage, whose call it bears; activity change (Venus), %; measured here: Venus reporter, other viral stage;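 negative = less Venus signal; first of two replicates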
* marks the source's active call; other numbers are inactive results; u = inconclusive; x = not tested or not shown. A portion of the library; the hit share may differ from the screen's.

SMILES | Vaccinia stage | Vaccinia stage Venus
C[C@@H]1CN([C@@H](C)CO)C(=O)c2cc(C#C[C@@H](C)O)cnc2O[C@@H]1CN(C)C(=O)c1ccncc1 | 7 | 2
CCS(=O)(=O)Nc1ccc2c(c1)C(=O)N(C)C[C@@H](OC)[C@H](C)CN(C(=O)C1CCC1)[C@H](C)CO2 | -4 | -16
CCCNC(=O)N1CC(=O)N2[C@H](CO)[C@@H](c3ccc(C#Cc4ccc(F)cc4)cc3)[C@@H]2C1 | u | x
C/C=C/c1ccc([C@H]2[C@H](CO)N3C(=O)CN(C(=O)Cc4cccnc4)C[C@@H]23)cc1 | 5 | 0
COc1ccc(CN(C)C[C@@H]2Oc3ccc(NC(=O)Cn4cnnn4)cc3C(=O)N([C@@H](C)CO)C[C@H]2C)cc1 | 18 | 8
C[C@H](CO)N1C[C@H](C)[C@H](CN(C)C(=O)CC2CC2)Oc2cc(C#CC3CC3)ccc2S1(=O)=O | -16 | -16
C[C@@H]1CN([C@H](C)CO)C(=O)Cc2cc(NC(=O)Nc3ccc4c(c3)OCO4)ccc2O[C@@H]1CN(C)Cc1ccc2c(c1)OCO2 | -16 | -2
O=C(CC(F)(F)F)N1C[C@@H]2[C@H](c3ccccc31)[C@H](CO)N2C(=O)c1cccnc1 | 9 | 9
COc1ccccc1S(=O)(=O)N(C)C[C@H]1Oc2ncc(-c3ccc(C)cc3)cc2C(=O)N([C@@H](C)CO)C[C@H]1C | u | x
COCC(=O)N1C[C@H]2[C@@H](c3ccccc31)[C@H](CO)N2C(=O)c1ccncc1 | 14 | 16
CC(C)(C)[S@@](=O)N1Cc2cc(C(=O)NCCc3ccncc3)nc(-c3cccc(-c4cccc(C#N)c4)c3)c2[C@H]1CCO | -7 | 5
Cc1ccc(S(=O)(=O)N(C)C[C@@H]2Oc3ncc(-c4ccc(F)cc4)cc3C(=O)N([C@H](C)CO)C[C@@H]2C)cc1 | -27 | -26
C[C@@H]1CCCCO[C@@H](CN(C)Cc2ccc(C(F)(F)F)cc2)[C@@H](C)CN([C@H](C)CO)C(=O)c2cc(NS(=O)(=O)c3ccc(F)cc3)ccc2O1 | 6 | -5
C[C@@H]1CN([C@@H](C)CO)C(=O)c2cc(NC(=O)CCCN(C)C)ccc2O[C@@H]1CN(C)Cc1ccccc1 | 11 | 9
C[C@@H]1CCCCO[C@H](CN(C)C(=O)CCCN(C)C)[C@@H](C)CN([C@@H](C)CO)C(=O)c2cc(NC(=O)Nc3ccccc3)ccc2O1 | 6 | 1
COc1ccc2c3c([nH]c2c1)[C@H](CO)N(Cc1cc(F)ccc1F)CC31CCN(C(=O)C2CCC2)CC1 | 0 | 2
C[C@@H]1CN([C@@H](C)CO)C(=O)c2cccc(NC(=O)NC3CCCCC3)c2O[C@H]1CN(C)Cc1ccc(C(=O)O)cc1 | 14 | 7
C[C@@H]1CN([C@H](C)CO)C(=O)Cc2cc(NC(=O)Cc3cn(C)c4ccccc34)ccc2O[C@@H]1CN(C)Cc1ccc(C(F)(F)F)cc1 | u | x
CO[C@@H]1CN(C)C(=O)c2cc(NS(C)(=O)=O)ccc2OC[C@@H](C)N(C(=O)C2CCCCC2)C[C@H]1C | 16 | 18
CN(C)C(=O)C[C@@H]1CC[C@@H](NC(=O)C2CCC2)[C@H](CO)O1 | 10 | 10
C[C@H](CO)N1C[C@H](C)[C@H](CN(C)C(=O)Nc2cccc3ccccc23)OCCCC[C@H](C)Oc2ccc(NC(=O)Cc3ccccc3)cc2C1=O | 27 | 12
O=C(C[C@H]1CC[C@@H](NS(=O)(=O)c2ccc(F)cc2)[C@H](CO)O1)N1CCN(c2ccccc2)CC1 | 2 | -7
C[C@H]1CN([C@@H](C)CO)C(=O)c2cccc(NC(=O)C3CCOCC3)c2O[C@H]1CN(C)C(=O)Nc1ccc(F)cc1 | 13 | 2
C[C@@H]1CN([C@H](C)CO)C(=O)c2cc(-c3ccc(F)cc3)cnc2O[C@@H]1CN(C)CC1CCCC1 | u | x

The closing 2 entries of the section before lead into the next.
SMILES | Vaccinia stage | Vaccinia stage Venus
C[C@H]1CN([C@@H](C)CO)C(=O)c2cccc(NC(=O)C3CCOCC3)c2O[C@H]1CN(C)C(=O)Nc1ccc(F)cc1 | 13 | 2
C[C@@H]1CN([C@H](C)CO)C(=O)c2cc(-c3ccc(F)cc3)cnc2O[C@@H]1CN(C)CC1CCCC1 | u | x
C[C@@H]1CN([C@H](C)CO)C(=O)c2cc(C3=CCCC3)cnc2O[C@H]1CN(C)Cc1ccc(C(=O)O)cc1 | 29 | 4
Cc1ccc(-c2ccc3c(c2)O[C@@H](CN(C)C(=O)Nc2ccc(C(F)(F)F)cc2)[C@H](C)CN([C@H](C)CO)S3(=O)=O)cc1 | u | x
Cc1ccc(S(=O)(=O)N[C@@H]2CC[C@H](CCNC(=O)CN3CCOCC3)O[C@@H]2CO)cc1 | 1 | 8
CCCC(=O)Nc1ccc2c(c1)OC[C@@H](C)N(C(C)=O)C[C@H](C)[C@@H](OC)CN(C)C2=O | -7 | -2
C[C@@H]1CN([C@H](C)CO)C(=O)c2cc(NC(=O)C3CCCCC3)ccc2O[C@H]1CN(C)C(=O)Nc1ccccc1 | 17 | 5
Cc1ccc(S(=O)(=O)N(C)C[C@@H]2Oc3ccc(NC(=O)Cn4cnnn4)cc3C(=O)N([C@H](C)CO)C[C@H]2C)cc1 | -7 | -9
CN1CCN(C(=O)C[C@H]2CC[C@H]3[C@@H](COC[C@H](O)CN3C(=O)Cc3ccccc3)O2)CC1 | 15 | 4
CO[C@@H]1CN(C)C(=O)c2ccc(NC(=O)C3CCCC3)cc2OC[C@H](C)N(CCC(F)(F)F)C[C@H]1C | -3 | -1
O=C(Nc1ccc(F)cc1)N[C@H]1CC[C@@H](CC(=O)N2CCCCC2)O[C@@H]1CO | 2 | 0
COc1cccc(S(=O)(=O)N2CCCCN3[C@H](C2)[C@@H](c2ccc(C#CC4CC4)cc2)[C@@H]3CO)c1 | -24 | -21
CNC[C@@H]1Oc2ccc(NC(=O)Nc3ccc(F)cc3)cc2C(=O)N([C@@H](C)CO)C[C@H]1C | 23 | 12
C[C@@H]1CN([C@H](C)CO)C(=O)Cc2cc(NC(=O)Cn3cnnn3)ccc2O[C@@H]1CN(C)CC1CC1 | -8 | 6
C[C@@H]1CN([C@@H](C)CO)C(=O)Cc2cc(NC(=O)c3ccncc3)ccc2O[C@H]1CN(C)CC1CCCCC1 | -33 | -26
O=C(C1CCCC1)N1CC(=O)N2[C@@H](CO)[C@H](c3ccc(C#CCc4ccccc4)cc3)[C@@H]2C1 | -12 | -20
CCS(=O)(=O)N1CC2(C1)[C@H](c1ccccc1)[C@H](CO)N2Cc1ccc(F)cc1 | 0 | 11
O=C(Nc1ccccc1)C1=C[C@@H](c2ccc3c(c2)Cc2ccccc2-3)C[C@@H](OCCCCO)O1 | 0 | 7
COc1ccccc1NC(=O)N1C[C@H](O)COC[C@H]2O[C@H](CC(=O)NCCc3ccccc3)CC[C@@H]21 | 7 | -1
O=C(C1CCC1)N1CC2(C1)[C@@H](c1ccccc1)[C@@H](CO)N2CCC(F)(F)F | -1 | 2
CCC(=O)N1[C@H](CO)[C@H](c2ccccc2)[C@H]1CN(CC1CCC1)S(C)(=O)=O | 21 | 10
COc1ccc(NC(=O)Nc2ccc3c(c2)C(=O)N([C@H](C)CO)C[C@H](C)[C@H](CN(C)C(=O)CCCN(C)C)OCCCC[C@H](C)O3)cc1 | 19 | 1
CO[C@H]1CN(C)C(=O)c2cc(NC(=O)C3CC3)ccc2OC[C@@H](C)N(C(=O)C2CCCCC2)C[C@@H]1C | -2 | 5
O=C(Cc1ccccn1)N[C@H]1CC[C@@H](CCNC(=O)c2cc(Cl)cc(Cl)c2)O[C@@H]1CO | 4 | 5
COc1ccc(S(=O)(=O)Nc2cccc3c2O[C@@H](CN(C)Cc2ccncc2)[C@H](C)CN([C@H](C)CO)C3=O)cc1 | 20 | 23
C[C@H](NC(=O)C[C@@H]1C=C[C@H](NC(=O)C2CCOCC2)[C@@H](CO)O1)c1ccccc1 | -5 | -12
CCCC#Cc1ccc2c(c1)O[C@H](CN(C)C(=O)COC)[C@@H](C)CN([C@H](C)CO)S2(=O)=O | -5 | -15
C/C=C/c1cnc2c(c1)C(=O)N([C@H](C)CO)C[C@H](C)[C@H](CN(C)C(=O)Nc1ccc(OC)cc1)O2 | 13 | 11
NC(=O)C1=C[C@H](C2CCCCC2)C[C@H](OCc2ccc(CO)cc2)O1 | 13 | 9
O=C(CC1CC1)Nc1ccc2c(c1)[C@H]1C[C@@H](CC(=O)N3CCCCC3)O[C@H](CO)[C@H]1O2 | 10 | 12
C[C@@H]1CN([C@@H](C)CO)C(=O)c2cc(NC(=O)NC3CCCCC3)ccc2O[C@@H](C)CCCCO[C@H]1CN(C)S(=O)(=O)c1ccccc1 | 4 | 2
CCC(=O)N(C)C[C@H]1Oc2cc(C#Cc3ccccc3)ccc2S(=O)(=O)N([C@H](C)CO)C[C@H]1C | u | x
C[C@H]1CN([C@@H](C)CO)C(=O)c2cc(NC(=O)CCCCCC(=O)Nc3ccccc3N)ccc2O[C@H]1CN(C)C(=O)Nc1ccc(C(F)(F)F)cc1 | 23 | 18
CCCNC(=O)N1CC2(C1)[C@H](c1ccccc1)[C@@H](CO)N2C(=O)C1CC1 | 9 | 4
COc1ccc(-c2cn(CC[C@H]3CC[C@H](NC(=O)Cc4ccccn4)[C@H](CO)O3)nn2)cc1 | -3 | -1
C[C@H]1CN([C@@H](C)CO)C(=O)c2cc(NC(=O)NC3CCCCC3)ccc2O[C@H]1CN(C)C(=O)NC1CCCCC1 | 0 | -3
O=C([C@@H]1[C@@H](CO)[C@@H]2Cn3c(ccc(-c4cccc(F)c4)c3=O)[C@@H]2N1Cc1cocn1)N1CCCCC1 | 3 | 5
O=C(Nc1cccc(Cl)c1)N[C@@H]1CC[C@@H](CCNC(=O)C2CCOCC2)O[C@@H]1CO | 9 | 8

A different layout for 14 compounds above:
canonical_smiles	Vaccinia stage	Vaccinia stage Venus
COc1ccc(S(=O)(=O)Nc2cccc3c2O[C@@H](CN(C)Cc2ccncc2)[C@H](C)CN([C@H](C)CO)C3=O)cc1	20	23
C[C@H](NC(=O)C[C@@H]1C=C[C@H](NC(=O)C2CCOCC2)[C@@H](CO)O1)c1ccccc1	-5	-12
CCCC#Cc1ccc2c(c1)O[C@H](CN(C)C(=O)COC)[C@@H](C)CN([C@H](C)CO)S2(=O)=O	-5	-15
C/C=C/c1cnc2c(c1)C(=O)N([C@H](C)CO)C[C@H](C)[C@H](CN(C)C(=O)Nc1ccc(OC)cc1)O2	13	11
NC(=O)C1=C[C@H](C2CCCCC2)C[C@H](OCc2ccc(CO)cc2)O1	13	9
O=C(CC1CC1)Nc1ccc2c(c1)[C@H]1C[C@@H](CC(=O)N3CCCCC3)O[C@H](CO)[C@H]1O2	10	12
C[C@@H]1CN([C@@H](C)CO)C(=O)c2cc(NC(=O)NC3CCCCC3)ccc2O[C@@H](C)CCCCO[C@H]1CN(C)S(=O)(=O)c1ccccc1	4	2
CCC(=O)N(C)C[C@H]1Oc2cc(C#Cc3ccccc3)ccc2S(=O)(=O)N([C@H](C)CO)C[C@H]1C	u	x
C[C@H]1CN([C@@H](C)CO)C(=O)c2cc(NC(=O)CCCCCC(=O)Nc3ccccc3N)ccc2O[C@H]1CN(C)C(=O)Nc1ccc(C(F)(F)F)cc1	23	18
CCCNC(=O)N1CC2(C1)[C@H](c1ccccc1)[C@@H](CO)N2C(=O)C1CC1	9	4
COc1ccc(-c2cn(CC[C@H]3CC[C@H](NC(=O)Cc4ccccn4)[C@H](CO)O3)nn2)cc1	-3	-1
C[C@H]1CN([C@@H](C)CO)C(=O)c2cc(NC(=O)NC3CCCCC3)ccc2O[C@H]1CN(C)C(=O)NC1CCCCC1	0	-3
O=C([C@@H]1[C@@H](CO)[C@@H]2Cn3c(ccc(-c4cccc(F)c4)c3=O)[C@@H]2N1Cc1cocn1)N1CCCCC1	3	5
O=C(Nc1cccc(Cl)c1)N[C@@H]1CC[C@@H](CCNC(=O)C2CCOCC2)O[C@@H]1CO	9	8

The list goes on.
SMILES | Vaccinia stage | Vaccinia stage Venus
CC(C)C#Cc1ccc([C@@H]2[C@@H](CO)N(C(=O)C3CCC3)[C@H]2C#N)cc1 | 5 | 5
CN(C)CCCNC(=O)C[C@@H]1CC[C@H]2[C@H](COc3ccc(NC(=O)c4ccc5c(c4)OCO5)cc3C(=O)N2C)O1 | -2 | -4
C[C@@H]1CN([C@H](C)CO)C(=O)Cc2cc(NC(=O)C3CCCCC3)ccc2O[C@H]1CN(C)Cc1ccccc1 | -30 | -30
CCN1CC(=O)N2[C@H](C1)[C@@H](c1ccc(Br)cc1)[C@@H]2CO | 14 | 6

Screens deposited in PubChem BioAssay by Broad Institute.
